MenB inh: M. tuberculosis MenB inhibitors, primary screen, biochemical, absorbance; inhibition, %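 (about 12 µg/mL by stock and volumes)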; MenB enzyme assay, absorbance read-out; some hits fall short of the stated cut; 100,000 tested, 0.43% active;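 active means mean of two replicates above 30%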;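 further: 0% = no compound and 100% = wells with inactive enzyme; the first replicate is given; strong numbers were not always called active; inactives centre near -10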
Target sequence (P9WNP5 whole entry, looked up): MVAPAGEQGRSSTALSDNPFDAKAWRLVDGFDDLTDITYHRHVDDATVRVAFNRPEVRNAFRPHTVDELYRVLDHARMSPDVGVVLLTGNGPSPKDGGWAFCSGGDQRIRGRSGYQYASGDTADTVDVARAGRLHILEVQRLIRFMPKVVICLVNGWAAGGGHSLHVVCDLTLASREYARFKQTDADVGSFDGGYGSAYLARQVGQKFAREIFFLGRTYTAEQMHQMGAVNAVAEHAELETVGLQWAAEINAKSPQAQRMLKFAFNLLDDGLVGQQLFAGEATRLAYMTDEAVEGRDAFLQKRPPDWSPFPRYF
MbtI inh: MbtI salicylate synthase inhibitors, primary screen, biochemical, fluorescence intensity | purified MbtI enzyme, fluorescence intensity read-out | P9WFX0 | 100,000 tested, 0.89% active | inhibition, %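 (about 17 µg/mL by stock and volumes)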;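 active means above 50% in both replicates, above 80% if mildly self-fluorescent; inactive means the rest, strongly fluorescent compounds included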;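 further: 0% = mean of negative and 100% = mean of positive controls; one replicate is shown; some compounds called inactive have numbers as strong as hits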
Target sequence (P9WFX0 whole entry, looked up): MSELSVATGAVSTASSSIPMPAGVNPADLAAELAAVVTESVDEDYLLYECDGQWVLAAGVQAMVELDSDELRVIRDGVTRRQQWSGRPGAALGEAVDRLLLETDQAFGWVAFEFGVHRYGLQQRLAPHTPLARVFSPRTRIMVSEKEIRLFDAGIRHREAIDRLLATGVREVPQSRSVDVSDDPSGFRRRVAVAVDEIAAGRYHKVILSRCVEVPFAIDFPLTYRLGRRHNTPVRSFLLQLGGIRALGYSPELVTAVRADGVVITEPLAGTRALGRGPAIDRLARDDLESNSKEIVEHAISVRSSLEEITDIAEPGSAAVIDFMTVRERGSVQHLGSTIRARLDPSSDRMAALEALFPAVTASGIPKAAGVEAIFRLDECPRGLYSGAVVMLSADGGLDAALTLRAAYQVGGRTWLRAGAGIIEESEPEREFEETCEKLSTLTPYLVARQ
PV pol inh: poliovirus RdRp elongation inhibitors, primary screen, biochemical, fluorescence polarization, total intensity; % elongation, % (compound at 16.7 µg/mL); Genome polyprotein (Poliovirus type 1 (strain Mahoney)), P03300; AID 588519, 2011; 150,000 tested, 0.66% active; poliovirus polymerase elongation; hits give low values; in the data active means % elongation below about 90%; further: some results filed as inactive read as strong as hits
PV pol inh intensity: second read-out of PV pol inh, no call of its own (marks repeat the call); % elongation; measured here: total intensity read-out; formula for this scale not given here;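 total fluorescence in place of polarization; lower means less elongation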
Starred values were filed as active, the others as inactive; . = not tested or not shown.

Screens in order – MenB inh	PV pol inh intensity	PV pol inh	MbtI inh
Cc1cc(=O)n2[nH]c(CC(=O)O)nc2n1
  -57	105	101	-11
CCOC(=O)c1csc(-c2ccc(-c3csnn3)cc2)n1
  14	103	102	-1
O=C1C2C3C=CC(C3)C2C(=O)N1c1ccccc1 (configuration not stated)
  -26	107	104	-6
COC(=O)c1sc(-c2cccs2)cc1NS(=O)(=O)c1ccc(C)cc1
  -37	104	99	28
NC(=O)c1cccc2cccc(I)c12
  6	104	100	16
O=C(O)CSc1nc2c(n1-c1ccccc1)CCCC2
  -11	107	103	-25
Cc1c(C(=O)c2ccc(OC(F)F)cc2)oc2ccc(F)cc12
  -25	103	101	5
OCc1nc(-c2cc(C(F)(F)F)cc(C(F)(F)F)c2)cs1
  -12	95	99	5
COc1cc(CN(C(=S)NCC(=O)N2CCCC2)C2CCCC2)cc(OC)c1OC
  -13	107	101	-8
COc1cccc(NC(=S)N(C2CCCCC2)C(C)c2ccco2)c1 (configuration not stated)
  -17	103	99	-9
CCN1C(=O)/C(=C2/SC(c3ccccc3)=C3N=CC(C)=CN32)SC1=S
  -26	105	107	12
CC(C)N1CC2(c3ccccc31)N1CC3(C)CN2CC(C)(C1)C3=O (configuration not stated)
  -19	106	105	-7
CC1=C(C#N)C(=O)N(CCc2ccccc2)C(=O)/C1=C/c1ccc(-c2ccc3c(c2)COC3=O)o1
  3	103	104	5
O=C(O)CCc1ccc(S(=O)(=O)Nc2cc(C(F)(F)F)ccc2N2CCCC2)cc1
  -26	91	99	36
CCOC(=O)c1c(NC(=S)N2CCc3ccccc32)sc2c1CCN(C(=O)OCC)C2
  11	115	109	-16
O=P1(NCc2ccco2)C=C(c2ccccc2)OC(c2ccccc2)=C1
  -23	109	106	2
CN1/C(=C\C=C(/C#N)c2nc3ccccc3[nH]2)C(C)(C)c2ccccc21
  .	191	72	-15
CC(=O)Nc1nonc1-c1nc2ccccc2n1Cc1ccccn1
  -8	107	103	.
c1cc(CNC2CCCC2)ccn1
  -16	106	101	1
Cc1nc(N2CC(O)CC2C(N)=O)c2c(-c3ccccc3)csc2n1 (configuration not stated)
  2	116	109	7
CNC(=O)CN(C#N)c1nc(N(C)C)nc(N(C)C)n1
  28	101	100	2
CCOC(=O)c1ccc(NC(=S)NCCn2cc(Br)cn2)cc1
  -18	98	100	-9
Cc1ccc2[nH]c(-c3ccccc3)c(CN3CCC(C)CC3)c(=O)c2c1
  6	102	102	4
COc1ccccc1N1CC(C(=O)OCn2nnc3ccccc3c2=O)CC1=O (configuration not stated)
  -15	102	101	30
COc1ccc(-c2noc(NC3CCCc4ccccc43)n2)cc1 (configuration not stated)
  -6	103	104	-6
CCC(C#N)C12CC3CC(CC(C3)C1)C2 (configuration not stated)
  -2	109	106	.
CCCOC(=O)c1c(N)sc2c1CCCC2
  -13	112	109	.
CCc1ccc(NC(=O)CSc2nncn2C)cc1
  5	110	107	.
N#CCSc1nc2ccccc2c(=O)n1CC1CCCC1
  -30	108	104	-10
CC(=O)N1CCN(Cc2nc3ccc(NC(=O)Cn4nc(C)c5ccccc5c4=O)cc3n2C)CC1
  -12	105	103	-7

Shown as tab-separated lines: part of the list above
mol	MenB inh	PV pol inh intensity	PV pol inh	MbtI inh
O=C(O)CSc1nc2c(n1-c1ccccc1)CCCC2	-11	107	103	-25
Cc1c(C(=O)c2ccc(OC(F)F)cc2)oc2ccc(F)cc12	-25	103	101	5
OCc1nc(-c2cc(C(F)(F)F)cc(C(F)(F)F)c2)cs1	-12	95	99	5
COc1cc(CN(C(=S)NCC(=O)N2CCCC2)C2CCCC2)cc(OC)c1OC	-13	107	101	-8
COc1cccc(NC(=S)N(C2CCCCC2)C(C)c2ccco2)c1 (configuration not stated)	-17	103	99	-9
CCN1C(=O)/C(=C2/SC(c3ccccc3)=C3N=CC(C)=CN32)SC1=S	-26	105	107	12
CC(C)N1CC2(c3ccccc31)N1CC3(C)CN2CC(C)(C1)C3=O (configuration not stated)	-19	106	105	-7
CC1=C(C#N)C(=O)N(CCc2ccccc2)C(=O)/C1=C/c1ccc(-c2ccc3c(c2)COC3=O)o1	3	103	104	5
O=C(O)CCc1ccc(S(=O)(=O)Nc2cc(C(F)(F)F)ccc2N2CCCC2)cc1	-26	91	99	36
CCOC(=O)c1c(NC(=S)N2CCc3ccccc32)sc2c1CCN(C(=O)OCC)C2	11	115	109	-16
O=P1(NCc2ccco2)C=C(c2ccccc2)OC(c2ccccc2)=C1	-23	109	106	2
CN1/C(=C\C=C(/C#N)c2nc3ccccc3[nH]2)C(C)(C)c2ccccc21	.	191	72	-15
CC(=O)Nc1nonc1-c1nc2ccccc2n1Cc1ccccn1	-8	107	103	.
c1cc(CNC2CCCC2)ccn1	-16	106	101	1
Cc1nc(N2CC(O)CC2C(N)=O)c2c(-c3ccccc3)csc2n1 (configuration not stated)	2	116	109	7
CNC(=O)CN(C#N)c1nc(N(C)C)nc(N(C)C)n1	28	101	100	2
CCOC(=O)c1ccc(NC(=S)NCCn2cc(Br)cn2)cc1	-18	98	100	-9
Cc1ccc2[nH]c(-c3ccccc3)c(CN3CCC(C)CC3)c(=O)c2c1	6	102	102	4
COc1ccccc1N1CC(C(=O)OCn2nnc3ccccc3c2=O)CC1=O (configuration not stated)	-15	102	101	30
COc1ccc(-c2noc(NC3CCCc4ccccc43)n2)cc1 (configuration not stated)	-6	103	104	-6
CCC(C#N)C12CC3CC(CC(C3)C1)C2 (configuration not stated)	-2	109	106	.
CCCOC(=O)c1c(N)sc2c1CCCC2	-13	112	109	.
CCc1ccc(NC(=O)CSc2nncn2C)cc1	5	110	107	.
N#CCSc1nc2ccccc2c(=O)n1CC1CCCC1	-30	108	104	-10
CC(=O)N1CCN(Cc2nc3ccc(NC(=O)Cn4nc(C)c5ccccc5c4=O)cc3n2C)CC1	-12	105	103	-7

Following part:
Screens in order – MenB inh	PV pol inh intensity	PV pol inh	MbtI inh
CCOC(=O)CSc1nc(-c2ccccc2)c(C#N)c(=O)[nH]1
  -22	99	104	-9
O=C(Nc1ccccc1)c1cc2c(=O)n3ccccc3nc2s1
  -4	99	102	-7
COc1ccc(-c2csc(=Nc3ccccc3)n2CCCN(C)C)cc1
  -11	100	98	12
CC(N)c1nc(-c2ccccc2Cl)no1 (configuration not stated)
  -15	101	101	-9
Cc1ccc(C(=O)c2coc3ccc(O)c(CN4CCN(C)CC4)c23)cc1
  -17	102	103	-6
O=C(COC(=O)C1CCC(=O)N1)Nc1nc(-c2ccccc2)cs1 (configuration not stated)
  -3	.	.	7
COc1ccccc1N1CCN(C2Sc3ccccc3NC2=O)CC1 (configuration not stated)
  -14	86	93	-7
COC(=O)C1=C(N)N(c2cccc(C(F)(F)F)c2)C2=C(C(=O)CCC2)C1c1ccccc1 (configuration not stated)
  -12	111	106	.
Cc1ccc(C(=O)Nc2ccccc2C(=O)NCc2ccco2)cc1
  -14	106	100	-47
NS(=O)(=O)c1ccc(CNC(=O)c2ccco2)cc1
  15	102	103	6
COC(=O)c1ccc(C)cc1
  -23	99	103	-12
CCC(Sc1nncn2c1cc1oc(C)cc12)C(=O)NCc1ccc(C)cc1 (configuration not stated)
  -3	105	102	6
O=c1[nH]c2nonc2nc1Nc1ccccc1
  -37	99	99	15
COc1ccc(C2(C(=O)NCCc3ccccc3)CCCC2)cc1OC
  -13	97	102	-4
Cn1c(Cc2nc(-c3cnccn3)no2)nnc1SCC(=O)Nc1ccc(Cl)cc1
  5	110	105	-10
CCc1nc(SC/C=C/c2ccccc2)c(C#N)cc1C
  -8	107	104	.
N#CC(C(=O)c1cc(=O)c2cc(Cl)ccc2o1)c1ccccn1 (configuration not stated)
  -5	110	103	19
CC(C)(C)CC(=O)NCc1ccc(F)cc1
  -4	103	101	-8
CCCCNC(=O)C1CCC(=O)N(c2ccc(OC)cc2)C1c1ccc(OC)cc1 (configuration not stated)
  5	101	100	-6
O=C(NCc1ccco1)C(Sc1ccccc1)c1ccccc1 (configuration not stated)
  33*	101	102	-5
O=C1S/C(=C/c2ccccc2)C(=O)N1CCOc1ccccc1
  .	98	99	1
NC(=O)Cn1c(=O)cnc2ccccc21
  -13	111	106	13
O=C(C[n+]1ccc(/C=N/O)cc1)NC1CCCCC1
  -7	108	103	10
O=C(CSc1nnc(Cc2cccs2)n1C1CC1)Nc1ccc2c(c1)OCO2
  -5	113	106	-10
CN(CC(=O)NC(=O)Nc1ccc2c(c1)OCCO2)Cc1ccc2c(c1)OCCO2
  -18	103	101	-7
COc1ccccc1CCC(=O)NCc1ccccc1
  -15	97	100	1
CNC(=O)CCC(=O)N1Cc2ccccc2Oc2ncccc21
  -4	104	101	8
Nc1ccc2c(c1)ncn2CCO
  -22	100	100	90
Cn1c(=O)c(C(CC(=O)c2cc3ccccc3oc2=O)Nc2ccccc2)c(O)c2ccccc21 (configuration not stated)
  -23	115	112	.
COc1ccc(OCC(O)CNC(=O)C2CCN(c3nccc(C(F)(F)F)n3)CC2)cc1 (configuration not stated)
  -10	101	102	49

Retrieved one by one from the entries so far, 3 records:
Screens in order – MenB inh	PV pol inh intensity	PV pol inh	MbtI inh
COC(=O)c1ccc(C)cc1
  -23	99	103	-12
O=C1S/C(=C/c2ccccc2)C(=O)N1CCOc1ccccc1
  .	98	99	1
CCCCNC(=O)C1CCC(=O)N(c2ccc(OC)cc2)C1c1ccc(OC)cc1 (configuration not stated)
  5	101	100	-6

Continued:
Screens in order – MenB inh	PV pol inh intensity	PV pol inh	MbtI inh
Cc1cc(=O)oc2cc(OCc3ccc4c(c3)OCO4)ccc12
  1	100	99	-2
O=c1c2ccccc2nc2c3ccccc3c(NCc3ccco3)nn12
  2	102	100	38
CCCCCn1c(=O)c2ccccc2n2c(Cn3nnc4ccccc4c3=O)nnc12
  -9	117	110	-3
O=C(NO)C1CC2C=CC1C2 (configuration not stated)
  .	95	98	-6
Cc1noc(C)c1CSc1nnc(Nc2ccccc2)s1
  1	113	113	20
COc1cc(OC)c(C2C3=C(CC(C)(C)CC3=O)Nc3nc4ccccc4n32)cc1OC (configuration not stated)
  -6	108	102	-16
Cc1cc(C)n2ncc(C(=O)NCCC(C)C)c2n1
  0	103	101	94
Cc1cc(=O)oc2cc(NC(=O)c3ccc4c(c3)S(=O)(=O)N=C3CCCCCN34)ccc12
  -22	107	111	59
CSc1sc(-c2[nH]ncc2Br)c2c1C(=O)CC(C)(C)C2
  -9	97	95	4
CCOc1ccc(S(=O)(=O)NC(C)C)cc1
  .	106	104	-8
O=C(O)c1cccc(-c2ccc(/C=C3\Sc4ccccc4C3=O)o2)c1
  -8	194	74	66
Cc1ccccc1-c1nnc(CN2CCCC2)o1
  12	103	103	1
O=C(NCCc1ccc(Cl)cc1)C12CC3CC(CC(C3)C1)C2
  5	112	105	.
Cc1nonc1CC(=O)O
  -3	103	101	-6
Cc1ccc2c(c1)nnn2C1CCN(C(=O)c2ccccc2)CC1
  -9	101	105	-6
Nn1c(SCc2cc(=O)n3cc(Br)ccc3n2)nnc1C1CCCCC1
  -39	96	100	8
C#CCOc1ccc(/C=C(/C#N)c2ccc(C(=O)O)cc2)cc1OC
  -20	103	103	-24
CCCn1c(N)c(C(=O)CSc2ccc3c(c2)OCCO3)c(=O)[nH]c1=O
  -11	108	104	11
CCN(Cc1nc2ccccc2c(=O)[nH]1)C(=O)Nc1ccc(Cl)cc1
  -13	105	107	-3
CC12CCC3C(CC=C4CC(OC5CCCCO5)CCC43C)C1CCC2=O (configuration not stated)
  -13	106	101	.
Cc1ccc(CCNC(=O)c2cc3c(=O)[nH]c4ccc(C)cc4c3s2)cc1
  -1	101	102	-36
Cc1c(C(=O)O)oc2c1C(=O)CCC2
  -6	102	101	4
COCCn1c(COc2cccc(OC)c2)nnc1SCC(=O)NC1CCCC1
  0	100	101	-11
CN(CC(=O)Nc1ccc(N2CCOCC2)cc1)CC(=O)Nc1ccc2c(c1)OCO2
  -6	.	.	2
CCC(C)NS(=O)(=O)c1ccc(C)cc1C (configuration not stated)
  -90	95	96	-26
Cc1ccc(Oc2c(C)nc(C)nc2OC(=O)N(C)C)cc1
  3	114	106	-13
COC(=O)C1=C(O)c2ccccc2S(=O)(=O)N1
  -20	111	110	.
CN(CC(=O)Nc1ccccc1Br)c1ncnc2sccc12
  1	97	101	-21
COc1ccc(Nc2ssc(=O)c2Cl)cc1OC
  -88	195	141	80
Cc1ccc(C2C(C#N)=C(N)SC(N)=C2C#N)c(C)c1
  -42	201	78	62
Cn1c(=O)c2c(n3nnnc13)-c1ccccc1CC21CCCC1
  -37	99	105	8
Cc1ccc(-c2csc3nc(C)n(-n4cccc4)c(=O)c23)o1
  .	109	103	5

Assay outcomes: PubChem BioAssay, ICCB-Longwood Screening Facility, Harvard Medical School
